Bioassay records from PubChem BioAssay.
Ecoli rRNA inh: selective bacterial rRNA inhibition in E. coli; E. coli WT GFP vs humanized-ribosome RFP mutants, fluorescence, 24 h; hits give low values; DMSO median 0, no signal -100; GFP signal change (wild-type ribosome), % (test concentration not listed); hit rate 1.6% among 350,000;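 active means significant combined selectivity score with lowered wild-type GFP, culture density cut under 30%, mutant RFP and density less affected; inactive means any of these conditions unmet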; further: one replicate is shown; some compounds called inactive have numbers as strong as hits
Ecoli rRNA inh OD600: recorded beside Ecoli rRNA inh, whose call it bears; OD600 change, %; measured here: OD600 growth;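 optical density of the mix in the first replicate; 0 = DMSO median and -100 = no signal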
Ecoli rRNA inh RFP: further read-out of Ecoli rRNA inh, marked with its call; RFP signal change, %; measured here: RFP humanized mutant strains;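 first replicate; 0 = DMSO median and -100 = no signal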
Numbers without * were called inactive; & = joins results of further samples. Only part of the results is shown. The share of hits here may be higher or lower than overall.

SMILES	Ecoli rRNA inh	Ecoli rRNA inh OD600	Ecoli rRNA inh RFP
CO[C@@H]1CN(C)C(=O)c2ccc(NS(C)(=O)=O)cc2OC[C@@H](C)N(CC2CCCCC2)C[C@@H]1C	0	0	-2.6
C[C@@H]1CN([C@@H](C)CO)S(=O)(=O)c2ccc(C#Cc3ccccn3)cc2O[C@H]1CN(C)Cc1cccc(F)c1	-5	-6	13
O=C(C[C@H]1CC[C@H]2[C@@H](COC[C@@H](O)CN2S(=O)(=O)c2ccc(F)cc2)O1)NCCN1CCCCC1	4	11	-2.2
COc1ccc(C[C@@H]2CCc3cnnn3COC[C@@H](c3ccccc3)NC2=O)cc1	5	20	-5.1
CC(C)NC(=O)N1[C@H](CO)[C@@H](c2ccccc2)[C@@H]1CN(C)C(=O)c1cccnc1	-1	4	-0.6
C#CCN(C[C@@H]1[C@@H](OC(=O)Nc2cccs2)[C@@H](OC(=O)Nc2cccs2)Cn2c(=O)ccc(=O)n21)S(=O)(=O)c1ccc(C)cc1	-5	-3	1.0
C[C@H]1CN([C@@H](C)CO)C(=O)c2c(c3ccccc3n2C)-c2ccccc2CO[C@H]1CN(C)Cc1cccc2c1OCCCO2	-6	-17	26
C[C@H](CO)N1C[C@H](C)[C@@H](CN(C)C(=O)Nc2cccc3ccccc23)Oc2ccc(NC(=O)Nc3ccc(C(F)(F)F)cc3)cc2CC1=O	4	3	-0.2
O=C(NCc1cccc(C(F)(F)F)c1)c1csc([C@@H]2O[C@H](CO)[C@H](O)[C@H](O)[C@H]2O)n1	14	14	2.6
C[C@@H]1CN([C@H](C)CO)C(=O)CCCn2cc(nn2)CO[C@@H]1CN(C)S(=O)(=O)c1ccc2ccccc2c1	-5	-5	6.1
CCOC(=O)N(C)C[C@H]1OCc2cnnn2CCCC(=O)N([C@H](C)CO)C[C@H]1C	9&0	10&-2	1.9&-4.4
Cc1ccc(-c2ccccc2[C@@H]2[C@@H](CO)N(C(=O)Cc3cccnc3)[C@H]2C#N)cc1	1	-16	9.2
C/C=C/c1cnc2c(c1)C(=O)N([C@@H](C)CO)C[C@H](C)[C@H](CN(C)C(=O)c1cnccn1)O2	4	2	-4.5
CN1CCN(C(=O)C[C@H]2CC[C@@H]3[C@H](COC[C@H](O)CN3Cc3cccc(-c4ccncc4)c3)O2)CC1	2	13	-1.6
C[C@H](CO)N1C[C@H](C)[C@@H](CN(C)S(=O)(=O)c2cn(C)cn2)Oc2ncc(C3=CCCC3)cc2C1=O	-2	13	-3.3
CC(O)(c1ccc(F)c(F)c1)c1nc(-c2csc3ccccc23)cs1 (stereo unspecified)	-32	-51	-9.7
C[C@@H](NC(=O)C[C@H]1CC[C@H](NC(=O)Nc2ccc3c(c2)OCO3)[C@H](CO)O1)c1ccccc1	-5	-5	-2.1
C[C@@H]1CN([C@H](C)CO)C(=O)Cc2cc(NC(=O)Nc3cccc4ccccc34)ccc2O[C@H]1CN(C)Cc1ccc(Oc2ccccc2)cc1	2	0	2.0
C[C@H]1CN([C@@H](C)CO)C(=O)CCCn2cc(nn2)CO[C@@H]1CN(C)Cc1cccc(O)c1	0	0	-0.6
C[C@H]1CN([C@@H](C)CO)C(=O)CCCn2nncc2CO[C@H]1CN(C)Cc1ccc(Cl)c(Cl)c1	-8	-20	4.2
COc1ccc(-c2ccc3c(c2)[C@@H]2[C@@H](CCN2C(=O)NC2CCCC2)[C@@H](CO)N3C)cc1	-8	-8	2.4
O=C(N[C@H]1CC[C@@H](CC(=O)N2CCc3ccccc3C2)O[C@H]1CO)C1CCOCC1	-2	2	1.5
CNC[C@H]1Oc2ccc(NC(=O)Cc3ccccc3)cc2C(=O)N([C@@H](C)CO)C[C@@H]1C	2	14	1.1
CN(C)CCCNC(=O)C[C@@H]1CC[C@@H]2[C@H](COc3ccc(NC(=O)c4cccc(F)c4)cc3C(=O)N2C)O1	4	0	-1.6
Cc1ccc(S(=O)(=O)N(C)C[C@@H]2Oc3ccc(NC(=O)Nc4ccc(C(F)(F)F)cc4)cc3C(=O)N([C@@H](C)CO)C[C@@H]2C)cc1	5	8	-1.3
O=C(C[C@@H]1C=C[C@@H](NC(=O)Nc2ccc(F)cc2)[C@H](CO)O1)NCCN1CCCC1	1	-4	0.7
O=C(Cc1ccccn1)NCC[C@H]1CC[C@H](NC(=O)Nc2ccc(Cl)cc2)[C@@H](CO)O1	-1	-6	0.3
C[C@@H]1CN([C@H](C)CO)C(=O)c2cc(NC(=O)c3ccncc3)ccc2O[C@@H](C)CCCCO[C@H]1CN(C)Cc1ccncc1	3	10	-1.7
CO[C@H]1CN(C)C(=O)c2ccc(NC(=O)Nc3ccc(C(F)(F)F)cc3)cc2OC[C@H](C)NC[C@H]1C	-43	-53	30
C[C@@H]1CN([C@@H](C)CO)S(=O)(=O)c2ccc(-c3ccncc3)cc2O[C@H]1CN(C)C(=O)c1ccc2c(c1)OCO2	0	-9	-0.7

Some of the entries above, set out differently.
Each structure is followed by: Ecoli rRNA inh | Ecoli rRNA inh OD600 | Ecoli rRNA inh RFP
C#CCN(C[C@@H]1[C@@H](OC(=O)Nc2cccs2)[C@@H](OC(=O)Nc2cccs2)Cn2c(=O)ccc(=O)n21)S(=O)(=O)c1ccc(C)cc1
  -5 | -3 | 1.0
C[C@H]1CN([C@@H](C)CO)C(=O)c2c(c3ccccc3n2C)-c2ccccc2CO[C@H]1CN(C)Cc1cccc2c1OCCCO2
  -6 | -17 | 26
C[C@H](CO)N1C[C@H](C)[C@@H](CN(C)C(=O)Nc2cccc3ccccc23)Oc2ccc(NC(=O)Nc3ccc(C(F)(F)F)cc3)cc2CC1=O
  4 | 3 | -0.2
O=C(NCc1cccc(C(F)(F)F)c1)c1csc([C@@H]2O[C@H](CO)[C@H](O)[C@H](O)[C@H]2O)n1
  14 | 14 | 2.6
C[C@@H]1CN([C@H](C)CO)C(=O)CCCn2cc(nn2)CO[C@@H]1CN(C)S(=O)(=O)c1ccc2ccccc2c1
  -5 | -5 | 6.1
CCOC(=O)N(C)C[C@H]1OCc2cnnn2CCCC(=O)N([C@H](C)CO)C[C@H]1C
  9&0 | 10&-2 | 1.9&-4.4
Cc1ccc(-c2ccccc2[C@@H]2[C@@H](CO)N(C(=O)Cc3cccnc3)[C@H]2C#N)cc1
  1 | -16 | 9.2
C/C=C/c1cnc2c(c1)C(=O)N([C@@H](C)CO)C[C@H](C)[C@H](CN(C)C(=O)c1cnccn1)O2
  4 | 2 | -4.5
CN1CCN(C(=O)C[C@H]2CC[C@@H]3[C@H](COC[C@H](O)CN3Cc3cccc(-c4ccncc4)c3)O2)CC1
  2 | 13 | -1.6
C[C@H](CO)N1C[C@H](C)[C@@H](CN(C)S(=O)(=O)c2cn(C)cn2)Oc2ncc(C3=CCCC3)cc2C1=O
  -2 | 13 | -3.3

(cont.)
SMILES	Ecoli rRNA inh	Ecoli rRNA inh OD600	Ecoli rRNA inh RFP
CC1CCCCC1NC(=O)CN1CCC(NC(=O)C(C)(C)C)CC1 (stereo unspecified)	17	18	-1.1
O=C(C[C@H]1C[C@@H]2c3cc(NC(=O)Nc4ccccc4F)ccc3O[C@@H]2[C@H](CO)O1)NCCc1ccccc1	2	3	-1.0
C[C@H]1CCCCO[C@H](CN(C)C)[C@@H](C)CN([C@@H](C)CO)C(=O)c2cc(NC(=O)Nc3ccc4c(c3)OCO4)ccc2O1	3	4	-0.3
COc1ccc(CN(C)C[C@@H]2Oc3ccc(NS(=O)(=O)c4ccc(Cl)cc4)cc3C(=O)N([C@@H](C)CO)C[C@H]2C)cc1	-3	-5	0.1
CCNC(=O)C[C@@H]1CC[C@@H]2[C@@H](COc3ccc(NC(=O)Nc4cccc(Cl)c4)cc3C(=O)N2C)O1	-6	-10	0.3
CNC(=O)C[C@@H]1CC[C@H]2[C@H](COc3ccc(NC(=O)NC4CCCC4)cc3C(=O)N2C)O1	-1	1	-1.0
C[C@H](CO)N1C[C@H](C)[C@@H](CN(C)Cc2ccc(Cl)c(Cl)c2)Oc2ccc(NS(=O)(=O)c3cn(C)cn3)cc2CC1=O	-16	-33	13
O=C(C1CCCC1)N1[C@@H]2CN(S(=O)(=O)c3ccccc3)c3ccccc3[C@@H]2[C@@H]1CO	-2	-4	-2.1
C[C@H]1CCCCO[C@H](CN(C)Cc2ccc(C(F)(F)F)cc2)[C@@H](C)CN([C@@H](C)CO)C(=O)c2cc(NS(=O)(=O)c3cn(C)cn3)ccc2O1	-2	-7	0.6
C[C@H]1Cn2cnc(C(=O)N[C@H](C)c3ccccc3)c2C(=O)N1	1	10	-2.2
O=C(C[C@@H]1CC[C@H]2[C@@H](COC[C@@H](O)CN2C(=O)Nc2cccc(F)c2)O1)NCCCN1CCOCC1	-12	3	-2.9
Cc1noc(C)c1NC(=O)N(C)C[C@@H]1Oc2ccc(NC(=O)Nc3ccc(C(F)(F)F)cc3)cc2CC(=O)N([C@H](C)CO)C[C@@H]1C	7	4	-0.5
CCCCCCCCN1C(=O)[C@H](CC(=O)N2CCC(c3ccccc3)CC2)C[C@@]2(C(=O)OC)CCCCC=C12	16	13	0.6
N#Cc1cccc(-c2ccc(C3[C@@H]4CNC[C@H]3N4)cc2)c1 (stereo partly specified)	-1	6	2.0
CCc1nc2ccc(C(=O)N3CCCCC3)cn2c1N(CCC(C)C)CCN(C)C	3	16	-4.1
O=C(NCc1ccccc1)[C@H]1[C@H](CO)[C@H]2Cn3c(cccc3=O)[C@@H]1N2CC1CCCC1	1	-4	1.7
CCCC(=O)N1CCC1(C)C(=O)Nc1ccc(C)cc1 (stereo unspecified)	6	8	1.5
CC(C)NC(=O)Nc1ccc2c(c1)CC(=O)N([C@@H](C)CO)C[C@H](C)[C@H](CN(C)C(=O)NC1CCCCC1)O2	4	7	2.5
COc1ccccc1CNC(=O)C[C@H]1C=C[C@@H](NC(=O)CC2CC2)[C@H](CO)O1	4	9	-0.4
Cc1ccc(Cc2c(-c3ccccc3)nc3cc(C)ccn23)cc1	-32	-75	4.7
O=C(C[C@H]1CC[C@H](NS(=O)(=O)c2ccc(F)cc2)[C@H](CO)O1)NC1CCC1	1	1	-2.1
Cc1cc(C(=O)Nc2cccc3c2O[C@@H](CN(C)C)[C@H](C)CN([C@@H](C)CO)C3=O)n(C)n1	2	2	-2.6
CCCCCc1c(-c2cccc(OC)c2)ncn1CCc1ccccc1OC	-18	-34	4.5
CC(C)CC#Cc1ccc2c(c1)O[C@H](CN(C)C)[C@@H](C)CN([C@@H](C)CO)S2(=O)=O	-1	-8	3.0
CCC(=O)N1C[C@H](C)[C@H](OC)CN(C)C(=O)c2cc(NC(=O)C3CCCCC3)ccc2OC[C@H]1C	0	5	1.2
CN(C)C(=O)c1ccc(-c2ccc([C@@H]3[C@H]4CN(C(=O)C5CC5)CC(=O)N4[C@H]3CO)cc2)cc1	3	1	-4.8
O=C(C[C@H]1CC[C@H]2[C@@H](COC[C@H](O)CN2C(=O)c2ccccc2F)O1)NCc1ccc(Cl)cc1	1	-3	26
O=C(OCCO)c1c(-c2ccccc2)oc2c1C(OCCO)CCC2 (stereo unspecified)	5	-1	-2.6
C[C@H](CO)N1C[C@H](C)[C@H](CN(C)S(C)(=O)=O)Oc2ncc(-c3ccccc3)cc2C1=O	-5	-3	-1.4
C[C@@H]1CN([C@@H](C)CO)C(=O)Cc2cc(NC(=O)c3ccncc3)ccc2O[C@H]1CN(C)C(=O)Nc1ccc(C(F)(F)F)cc1	-2	-7	0.2
COc1ccc(-c2c(C(=O)c3ccc(Br)cc3)[nH]c(N)c2C(=O)c2ccccc2)cc1OC	8	18	8.7
O=C(Cc1cccnc1)N1CC(=O)N2[C@@H](CO)[C@@H](c3ccc(C#CC4CC4)cc3)[C@@H]2C1	2	14	-4.3
C[C@H](CO)N1C[C@H](C)[C@H](CN(C)S(=O)(=O)c2ccc(Cl)cc2)Oc2ccc(NS(=O)(=O)c3cn(C)cn3)cc2CC1=O	0	0	1.7
O=C(O)C[C@H]1CC[C@H]2[C@@H](COC[C@@H](O)CN2S(=O)(=O)c2ccc(F)cc2)O1	1	2	-7.2
CO[C@H](CN(C)S(=O)(=O)c1ccc(Cl)cc1)[C@H](C)CN([C@H](C)CO)S(=O)(=O)c1cccc(Cl)c1	-4	-34	30
O=C(C[C@H]1C=C[C@@H](NS(=O)(=O)c2ccc(F)cc2)[C@H](CO)O1)NCc1ccc(Cl)c(Cl)c1	-6	-14	7.5
C[C@@H]1CN([C@H](C)CO)S(=O)(=O)c2ccc(C#CC3CC3)cc2O[C@H]1CN(C)C	0	-5	-2.8
Cc1ccc(S(=O)(=O)NCC[C@H]2CC[C@H](NC(=O)c3cnccn3)[C@H](CO)O2)cc1	-6	-6	4.0
C[C@H](NC(=O)C[C@H]1CC[C@H]2[C@@H](COC[C@H](O)CN2Cc2ccc(C(F)(F)F)cc2)O1)c1ccccc1	-2	-45	-3.4
O=C(Nc1ccc2c(c1)OCO2)N[C@@H]1CC[C@@H](CCNC(=O)C2CC2)O[C@@H]1CO	-2	-1	-0.7
C[C@@H]1CN([C@H](C)CO)S(=O)(=O)c2ccc(C3=CCCCC3)cc2O[C@@H]1CN(C)C	2	14	-3.5
CCNC(=O)C[C@@H]1CC[C@H]2[C@H](COc3ccc(NC(=O)c4cscn4)cc3C(=O)N2C)O1	2	10	-0.2
C[C@@H]1CCCCO[C@@H](CN(C)Cc2ccncc2)[C@@H](C)CN([C@@H](C)CO)C(=O)c2cc(NC(=O)Nc3ccc(C(F)(F)F)cc3)ccc2O1	2	-4	4.4
OC[C@@H]1CN(Cc2ccncc2)C[C@H](n2cnc3c(N4CCOCC4)ncnc32)O1	7	10	-0.4
CN1C(=O)c2cc(NC(=O)c3ccno3)ccc2OC[C@H]2O[C@@H](CC(=O)NCC3CC3)CC[C@@H]21	6	1	0.4
Cc1ccc(S(=O)(=O)Nc2ccc3c(c2)CC(=O)N([C@H](C)CO)C[C@H](C)[C@@H](CN(C)Cc2ccncc2)O3)cc1	-2	-4	0.1
O=C(c1ccccc1)N1C[C@H]2[C@@H](c3ccccc31)[C@@H](CO)N2C(=O)CN1CCOCC1	5	5	-1.8
O=C(C[C@@H]1CC[C@H]2[C@@H](COC[C@H](O)CN2Cc2nccs2)O1)N1CCC(Cc2ccccc2)CC1	-6	-5	-1.7
